Assay outcomes from PubChem BioAssay.
Beta apoptosis = inhibitors of cytokine-induced beta cell apoptosis, primary screen, luminescence | INS-1E cytokine-induced death, ATP luminescence, 48 h; percent of positive-control rescue, neutral wells zero | protection from apoptosis, % (test concentration not listed) | 0.8% of 300,000 active | AID 435005, 2010;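 active = all replicates at 75% or more, or half of them and the mean; inconclusive = half reach 75% but not the mean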;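 note: 0% = cytokine-treated negative control wells and 100% = positive control rescue; higher means more ATP so stronger rescue from cytokine killing; wells of about 40 µL received 100 nL stock; the first replicate is given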
Vif A3G = inhibitors of Vif binding to APOBEC3G peptide, primary screen, biochemical, TR-FRET, GST-Vif 1-94, biotin-A3G peptide, dose response retest (AID 1117319); Virion infectivity factor (Human immunodeficiency virus type 1 group M subtype B (isolate …; inhibition, %; hits with a dose series show IC50 in µM; 0.57% of 260,000 active; TR-FRET GST-Vif / biotin-A3G peptide binding; higher % means a stronger effect; test concentration not given here; strong numbers were not always called active;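 active = above the screen mean plus three standard deviations and confirmed in dose response; inconclusive = results disagree or hit not tested in dose response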;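 note: Vif residues 1-94 fused to GST binding biotinylated APOBEC3G peptide 110-148; 0% = full assay without inhibitor and 100% = GST in place of GST-Vif; retest series ran down from 100 µM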
T cruzi repl = inhibitors of intracellular T. cruzi growth, primary screen, luminescence, NIH3T3 host cells | T. cruzi beta-gal in NIH3T3, 90 h | inhibition, % (no concentration beside the values) | 1.4% of 300,000 active | AID 1885, 2009;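 active = mean inhibition across valid replicates above about 55%, limit read from the data; inconclusive = mean below that limit but half or more replicates reach it; inactive = mean below it, under half of replicates reach it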;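 note: signal also drops with host cell toxicity which is not excluded here; 0% = plate median of DMSO wells and 100% = zero luminescence signal; higher percent means less beta-gal luminescence so fewer parasites; stock transfer was 50 nL into about 50 µL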
Calb FLC = C. albicans growth inhibition with fluconazole, primary screen, CaCi-2 strain, Alamar Blue fluorescence; growth inhibition, % (concentration not given with the values); C. albicans CaCi-2 (fluconazole-resistant clinical isolate) + fluconazole, 48 h; 0.57% of 300,000 active;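 active = most replicates above 75%; inconclusive = exactly half above 75%; inactive = most below 75%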;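 note: all wells also contain fluconazole at 8 µg/ml as a sub-toxic cotreatment; 0% = median of DMSO wells and 100% = median of geldanamycin control wells; wells of about 8 µL received 7.5 nL stock; the first replicate is given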
A1 inh = caspase 3/7 activation in MEF A1-2A-BIM cells, primary screen, A1 inhibitor project, cell-based, luminescence, HTS | 0.066% of 330,000 active | caspase activation, % (concentration not given with the values) | Caspase-Glo 3/7 luminescence, 3 h; percent of clofoctol response, vehicle zero | AID 2462, 2010;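 active = over half of replicate activation scores above 10%, or exactly half above 10 with the replicate mean above 10; inconclusive = replicate mean below 10 yet half the replicates above 10; inactive = over half of replicates below 10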;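 note: wells of about 30 µL received 50 nL stock; many hits fall short of the cut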
RanGTP-Impb inh = inhibitors of RanGTP-importin-beta interaction, primary screen, biochemical, FRET, CFP-Ran, YFP-importin-beta, homogeneous; Ran GTPase (GTP-bound) - importin-beta complex; cell-free CFP-Ran/YFP-importin-beta FRET ratio; inhibition, % (no concentration beside the values); 1.1% of 300,000 active; AID 2216, 2009;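 active = most replicates above 15%; inconclusive = exactly half above 15%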;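 note: 0% = DMSO wells and 100% = Ran loaded with GDP instead of GTP; wells of about 40 µL received 100 nL stock; the first replicate is given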
MLL AF4-AF9 inh = inhibitors of AF4 peptide binding to AF9, primary screen, biochemical, AlphaScreen, biotin-AF4 peptide, FLAG-AF9, single point | Protein AF-9 (Homo sapiens), P42568 | 0.47% of 350,000 active | inhibition, % at 10 µM;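 active = every replicate reaching a set inhibition limit, whatever the replicate mean, cut at about 25% in these data; inconclusive = mean inhibition reaches that limit but some replicates miss it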;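 note: 0% = plate neutral control median and 100% = total signal loss; the record names both 10 and 1 µM as test concentration; the first replicate is given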
LANA-H2A inh = blockers of LANA interaction with H2A/H2B – biochemical, FP readout, HTS, primary screen; Protein LANA1 (Human herpesvirus 8 type P (isolate GK18)), Q9QR71; cell-free LANA-H2A/H2B peptide, fluorescence polarization; inhibition, % (no concentration beside the values); 0.6% of 320,000 active; AID 2629, 2010; in the data active = inhibition mostly above about 10%, no sharp cut-off; inactive = mostly below about 6.7%;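 note: stock transfer was 7.5 nL into about 10 µL; 0% = median of vehicle wells and 100% = median of positive control wells; one replicate is shown; the record names a cut of 25% in any replicate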
Target sequence (Q9QR71 whole entry, looked up): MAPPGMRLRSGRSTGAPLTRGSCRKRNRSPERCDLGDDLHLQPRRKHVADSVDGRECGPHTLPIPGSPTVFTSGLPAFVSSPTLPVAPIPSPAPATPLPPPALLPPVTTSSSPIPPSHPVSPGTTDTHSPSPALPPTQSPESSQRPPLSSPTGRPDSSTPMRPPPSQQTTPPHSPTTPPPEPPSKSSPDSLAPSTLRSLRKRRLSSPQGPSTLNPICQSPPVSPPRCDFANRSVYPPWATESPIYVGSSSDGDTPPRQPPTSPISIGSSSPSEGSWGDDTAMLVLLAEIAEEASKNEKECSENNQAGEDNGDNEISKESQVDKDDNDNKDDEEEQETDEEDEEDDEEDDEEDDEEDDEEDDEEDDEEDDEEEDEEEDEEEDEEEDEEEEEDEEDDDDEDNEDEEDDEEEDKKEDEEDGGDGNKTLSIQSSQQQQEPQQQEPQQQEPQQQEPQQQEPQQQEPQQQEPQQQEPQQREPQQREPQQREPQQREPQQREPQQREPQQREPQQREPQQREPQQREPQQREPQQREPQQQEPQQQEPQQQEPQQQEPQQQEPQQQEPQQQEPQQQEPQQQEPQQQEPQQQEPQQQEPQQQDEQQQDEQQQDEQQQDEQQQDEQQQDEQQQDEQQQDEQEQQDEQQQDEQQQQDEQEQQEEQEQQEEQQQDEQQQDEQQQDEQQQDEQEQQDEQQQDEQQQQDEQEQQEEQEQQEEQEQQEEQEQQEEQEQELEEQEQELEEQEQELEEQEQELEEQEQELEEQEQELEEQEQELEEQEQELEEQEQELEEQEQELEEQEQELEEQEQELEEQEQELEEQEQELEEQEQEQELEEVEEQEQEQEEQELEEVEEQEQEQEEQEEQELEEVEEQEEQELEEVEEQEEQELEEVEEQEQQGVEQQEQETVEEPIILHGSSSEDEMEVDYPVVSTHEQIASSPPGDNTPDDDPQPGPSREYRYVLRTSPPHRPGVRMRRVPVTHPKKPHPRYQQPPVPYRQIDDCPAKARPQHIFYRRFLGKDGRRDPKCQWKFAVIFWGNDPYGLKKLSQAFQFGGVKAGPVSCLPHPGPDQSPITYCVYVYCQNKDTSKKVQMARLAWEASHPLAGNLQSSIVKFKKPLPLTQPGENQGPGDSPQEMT
An asterisk follows results filed as active; ? = inconclusive; . = no result given; & = joins results of further samples.

The line under a structure holds: Beta apoptosis	Vif A3G	T cruzi repl	Calb FLC	A1 inh	RanGTP-Impb inh	MLL AF4-AF9 inh	LANA-H2A inh
1	CCOC(=O)C1=C(c2ccccc2)N=c2s/c(=C\c3ccco3)c(=O)n2C1c1cccs1 (stereo not drawn)
  .	3.8µM*	-5	7	0.9	-9.8	.	-0.5
2	Cc1cc(SCC(=O)OCC(=O)NCc2ccc3c(c2)OCO3)c(C)cc1Br
  -1	.	-7	6	0.5	-0.7	-0.9	-6.1
3	COc1ccc(OC)c(CN2CCN(C(=O)c3cccc4ccccc34)CC2)c1
  -1	4%&-5%	0	3	-0.1	-0.5	.	-1.0
4	NC(=O)c1ccc(NC(=O)COC(=O)CC2CC3CCC2C3)cc1 (stereo not drawn)
  2	-1%	.	.	2.4	.	1.6	1.7
5	CC(C)c1cccc(OCCN2CCCC2)c1
  1	.	43	-18	0.1	-3.7	-0.4	5.1
6	O=C1c2cccc3c([N+](=O)[O-])ccc(c23)C(=O)N1Cc1cccnc1
  .	-9%	85*	?	.	-10	1.0	.
7	CN(CC(=O)N1CCc2ccccc21)S(=O)(=O)c1ccc(Cl)cc1
  -4	-6%	-3	1	-1.0	1.7	.	-8.8
8	CCOc1ccc(NC(N)=O)cc1OCC
  -8	13%	3	3	0.0	1.7	.	1.1
9	CC(C)CCn1c(O)c(N=Nc2ccccn2)c2ccccc21
  1	.	16	-1	0.6	-3.8	.	3.9
10	C/C(=N\NC(=O)OC(C)(C)C)c1ccccc1Br
  6	-9%	-23	11	-1.1	-0.3	0.0	-1.8
11	COCC(=O)N(C)C1(c2nnnn2CCOC(=O)Nc2cccc3ccccc23)CCCC1
  -3	25%	5	-1	0.2	-1.1	.	9.2
12	COc1ccc(N2CCN(C(=O)CN(C)S(=O)(=O)c3ccc4c(c3)c(=O)n(C)c(=O)n4C)CC2)cc1
  4	-5%	6	-15	0.4	-2.8	0.5	9.3
13	COc1ccc(CNC(=O)CCSCc2ccccc2C)cc1
  1	-1%	-7	15	0.6	5.9	-0.6	8.9
14	Cc1ccc(-c2nn(-c3ccccc3)cc2C2CC(c3cccs3)=NN2C(=O)CCCC(=O)O)cc1 (stereo not drawn)
  -1	2%	-1	?	0.9	?	.	2.9
15	COc1ccc(Nc2cc(C)c3ccccc3n2)cc1
  -3	3%	24	-43	-1.4	-1.2	16	-5.2
16	Cc1ccc(S(=O)(=O)N2CCCCC2c2cccnc2)c(C)c1C (stereo not drawn)
  98*	-2%	54	11	0.5	5.3	-14	0.4
17	COc1ccc(Cc2nnc(NS(=O)(=O)Cc3ccccc3)s2)cc1
  -2	4%	5	3	-3.2	1.9	.	-6.4
18	NC(=O)c1c(NC(=O)CCCn2cnc([N+](=O)[O-])n2)sc2c1CCCC2
  -3	1%	60*	5	-0.3	?	8.4	-5.6
19	O=C(N/N=C/c1cc(Cl)ccc1O)c1ccc(Br)cc1
  112*	-14%	.	.	-0.5	.	.	-3.7
20	COc1ccc(CCOC(=O)c2cccc(NC(C)=O)c2)cc1
  .	1%	2	-3	1.3	-0.9	1.2	10

Random excerpt: 4 entries already listed.
The line under a structure holds: Beta apoptosis	Vif A3G	T cruzi repl	Calb FLC	A1 inh	RanGTP-Impb inh	MLL AF4-AF9 inh	LANA-H2A inh
13	COc1ccc(CNC(=O)CCSCc2ccccc2C)cc1
  1	-1%	-7	15	0.6	5.9	-0.6	8.9
15	COc1ccc(Nc2cc(C)c3ccccc3n2)cc1
  -3	3%	24	-43	-1.4	-1.2	16	-5.2
12	COc1ccc(N2CCN(C(=O)CN(C)S(=O)(=O)c3ccc4c(c3)c(=O)n(C)c(=O)n4C)CC2)cc1
  4	-5%	6	-15	0.4	-2.8	0.5	9.3
16	Cc1ccc(S(=O)(=O)N2CCCCC2c2cccnc2)c(C)c1C (stereo not drawn)
  98*	-2%	54	11	0.5	5.3	-14	0.4

Along the list, quoted from above.
A1 inh, nos. 12–16 → 0.4, 0.6, 0.9, -1.4, 0.5

The main list resumes with the 2 entries that preceded the break.
The line under a structure holds: Beta apoptosis	Vif A3G	T cruzi repl	Calb FLC	A1 inh	RanGTP-Impb inh	MLL AF4-AF9 inh	LANA-H2A inh
19	O=C(N/N=C/c1cc(Cl)ccc1O)c1ccc(Br)cc1
  112*	-14%	.	.	-0.5	.	.	-3.7
20	COc1ccc(CCOC(=O)c2cccc(NC(C)=O)c2)cc1
  .	1%	2	-3	1.3	-0.9	1.2	10
21	C=CCn1c(SCC(=O)NC2CC2)nnc1-c1cccs1
  .	1%	-8	-3	0.5	1.6	-2.4	1.2
22	O=[N+]([O-])c1ccc(N2CCN(c3ccccc3)CC2)cc1
  -1	.	-2	3	-0.6	-0.6	-1.2	0.1
23	CC(=O)c1ccc(NC(=O)COC(=O)CC2CC3CCC2C3)cc1 (stereo not drawn)
  -11	.	.	.	1.6	.	1.2	-1.0
24	Cc1ccc(O)c(CCc2ccc(O)cc2)n1
  -5	-9%	-9	-21	0.2	4.0	-1.2	6.1
25	Cc1ccc(S(=O)(=O)N2CCN(C(=O)CCn3nc(C)c(C)c3C)CC2)cc1
  -3	.	-3	1	0.6	-10	0.5	5.4
26	O=C(Nc1ccccc1)c1nc[nH]c1C(=O)NCCNC(=O)c1[nH]cnc1C(=O)Nc1ccccc1
  2	.	.	.	-0.9	.	-19	-0.3
27	O=C(CSc1nnc(COc2ccccc2Cl)o1)Nc1ccccc1
  -2	-3%	.	.	0.8	.	-2.9	-1.1
28	Nc1nc(C(F)(F)F)cc(=O)[nH]1
  -4	4%	-6	-3	0.5	-0.1	-0.7	0.0
29	Cc1c(NC(=O)c2cc(-c3ccc4c(c3)OCO4)on2)c(=O)n(-c2ccccc2)n1C
  -3	1%	-3	-1	1.3	-0.8	.	-6.6
30	CN(C)S(=O)(=O)c1ccc(Cl)c(C(=O)NC2CCN(Cc3ccccc3)C2)c1 (stereo not drawn)
  3	.	39	7	0.6	6.7	-1.0	-3.3
31	Cc1cc(C)cc(C(=O)NCC(=O)N(C)CCOc2ccccc2)c1
  -6	1%	.	.	1.0	.	?	-0.1
32	O=c1c(-c2ccc(Cl)cc2)[n+]([O-])c2ccccc2n1OCc1nc2ccccc2[nH]1
  1	.	-6	-3	0.7	6.2	-3.2	0.7
33	O=C(CCSCc1ccccc1Cl)NC1CCCCC1
  -6	.	-5	-24	0.2	3.7	-0.6	-0.7
34	Cc1cc(C)nc(OC(C(=O)O)C(OCCc2ccccc2)(c2ccc(F)cc2)c2ccc(F)cc2)n1 (stereo not drawn)
  -1	.	-6	28	1.0	-3.2	-9.1	3.9
35	COC(CNS(=O)(=O)c1cccc2nonc12)OC
  -5	.	-11	-6	0.6	5.9	-1.2	-3.2
36	CCCCN(CCCNC(=O)C1CCN(C(=O)c2cc3sccc3n2C)CC1)Cc1ccccc1
  .	-7%	45	1	-1.2	4.2	12	-2.3
37	O=[N+]([O-])c1ccc(Cl)c2cccnc12
  3	-4%	-9	?	0.1	4.4	-1.7	-0.7
38	Cc1cccc(NS(=O)(=O)c2cccc3cccnc23)n1
  .	?	-15	1	0.2	-0.9	-2.8	-0.9
39	COc1ccc(NC(=O)CN(C)C(=O)c2cccc(S(=O)(=O)N3CCN(C)CC3)c2)cc1
  .	-1%	-8	3	-0.3	6.2	-1.2	-1.7
40	CC(C)Cc1nc2n[nH]c(N)c2c2c1COC(C)(C)C2
  -14	26%	12	1	0.4	-4.5	.	-1.8

Look-ups from the entries so far.
Vif A3G with Cc1cc(C)cc(C(=O)NCC(=O)N(C)CCOc2ccccc2)c1 → 1%
Calb FLC with CCCCN(CCCNC(=O)C1CCN(C(=O)c2cc3sccc3n2C)CC1)Cc1ccccc1 → 1
LANA-H2A inh with O=[N+]([O-])c1ccc(Cl)c2cccnc12 → -0.7

Additional structures.
The line under a structure holds: Beta apoptosis	Vif A3G	T cruzi repl	Calb FLC	A1 inh	RanGTP-Impb inh	MLL AF4-AF9 inh	LANA-H2A inh
41	COc1ccc(-c2cc(C(=O)N/N=C/c3cccnc3)c3ccccc3n2)cc1
  7	.	.	-1	0.0	.	4.6	0.6
42	CC(=O)Nc1nnc(-c2c(-c3c(Cl)cccc3Cl)noc2C)o1
  0	84%	12	8	-0.2	5.0	1.5	2.3
43	CN1CCN(C(=O)c2cn(-c3ccccc3)nc2-c2cccnc2)CC1
  -5	2%	1	-26	0.4	1.1	.	-3.4
44	COc1ccc(CCNC2CC(=O)N(CCc3ccc(OC)c(OC)c3)C2=O)cc1 (stereo not drawn)
  -7	13%	-10	2	0.5	-3.1	.	-1.3
45	COc1cccc(C2Nc3ccc4ccccc4c3C3=C2C(=O)CCC3)c1O (stereo not drawn)
  26	-3%	12	1	-0.3	-0.7	-4.4	-2.5
46	COc1ccc(S(=O)(=O)NCC(c2ccco2)N2CCOCC2)cc1 (stereo not drawn)
  -3	-3%	8	-2	0.3	?	7.4	-3.5
47	CC(C)NC(=O)Cn1c(SCC(=O)N2CCCCCC2)nc2ccccc21
  -3	2%	10	32	-0.8	1.5	.	3.5
48	CCOC(=O)C1=C(COC(=O)CNS(=O)(=O)c2ccc(C)cc2)NC(=O)NC1C (stereo not drawn)
  .	.	-6	-2	0.7	-0.4	-0.8	8.7
49	CCSc1nnc(NC(=O)C2(C)Cc3ccccc3C(=O)O2)s1 (stereo not drawn)
  -1	6%	-13	-2	0.3	-0.4	.	1.1
50	Cc1ccc(N/N=C(\C#N)C(N)=S)c(C)c1
  -4	0%	11	-3	-1.2	0.2	.	-2.5
51	Cc1ccc(OCCC(=O)OCC(=O)NC2CCCC(C)C2C)cc1 (stereo not drawn)
  6	.	.	.	-2.1	.	-2.9	6.1
52	Cc1ccc2cc(S(=O)(=O)NCCCC(=O)O)ccc2c1
  -7	10%	11	-4	0.4	0.4	.	7.8

Rows were taken by chance, and some 4.3% of all compounds hit somewhere here.
